Assay outcomes: PubChem BioAssay, Broad Institute
MLL AF4-AF9 inh: blocks AF4 peptide binding to human AF9; AlphaScreen, biotin-AF4 peptide binding to FLAG-AF9; inhibition, % at 10 µM; 350,000 tested, 0.47% active; AID 651704;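 active = every replicate reaching a set inhibition limit, whatever the replicate mean, cut at about 25% in these data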;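 note: 0% = plate neutral control median and 100% = total signal loss; the record names both 10 and 1 µM as test concentration; the first replicate is given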
Target sequence (P42568 whole entry, looked up): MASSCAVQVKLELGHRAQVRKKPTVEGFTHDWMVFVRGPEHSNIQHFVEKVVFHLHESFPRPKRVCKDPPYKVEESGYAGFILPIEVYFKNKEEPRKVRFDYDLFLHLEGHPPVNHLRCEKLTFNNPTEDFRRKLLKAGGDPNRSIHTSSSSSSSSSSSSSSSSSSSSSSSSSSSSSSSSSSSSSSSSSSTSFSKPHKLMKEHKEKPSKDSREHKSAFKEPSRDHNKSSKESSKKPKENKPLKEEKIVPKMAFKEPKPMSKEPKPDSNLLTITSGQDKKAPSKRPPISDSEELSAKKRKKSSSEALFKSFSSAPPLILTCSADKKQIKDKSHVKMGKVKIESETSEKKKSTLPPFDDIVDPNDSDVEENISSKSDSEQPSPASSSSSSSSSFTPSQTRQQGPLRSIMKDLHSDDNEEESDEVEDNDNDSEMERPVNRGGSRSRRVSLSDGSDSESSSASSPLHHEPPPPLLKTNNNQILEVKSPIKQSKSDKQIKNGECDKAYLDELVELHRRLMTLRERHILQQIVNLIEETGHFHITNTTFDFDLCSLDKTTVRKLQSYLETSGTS
The depositor's hits bear a star; & = joins results of further samples.

canonical_smiles,MLL AF4-AF9 inh
O=C(Cn1cc(COc2ccccc2[N+](=O)[O-])nn1)c1ccc(O)cc1,-2.9
CCCC(O)C#Cc1cnc2c(c1)C(=O)N([C@H](C)CO)C[C@H](C)[C@H](CN(C)S(=O)(=O)c1cccc(F)c1)O2 (some centres undefined),-3.7
C[C@H](CO)N1C[C@H](C)[C@H](CN(C)C(=O)NC2CCCCC2)OCCCC[C@H](C)Oc2ccc(NC(=O)Nc3ccc4c(c3)OCO4)cc2C1=O,-0.2
O=C(Nc1ccccc1)N1C[C@@H]2[C@H](c3ccccc31)[C@@H](CO)N2C(=O)c1ccncc1,-13.3
COC(=O)[C@]12C[C@H](CC(=O)NCC3CCCCC3)C(=O)N(Cc3ccccc3)C1=C[C@H](C1CCCC1)O[C@@H]2C,2.9
O=C(NCC[C@@H]1CC[C@@H](NC(=O)C2CCCCC2)[C@@H](CO)O1)c1cnccn1,-2.4
C[C@@H]1CN([C@H](C)CO)C(=O)Cc2cc(NS(=O)(=O)c3ccc(Cl)cc3)ccc2O[C@@H]1CN(C)C(=O)Nc1cccc2ccccc12,1.1
COc1ccc(CN(C)C[C@H]2Oc3ccc(NS(=O)(=O)c4ccc(OC)cc4)cc3C(=O)N([C@H](C)CO)C[C@@H]2C)cc1,-0.5
CN(C)CCNC(=O)C(=O)NCC1OCCN1S(=O)(=O)c1ccc(F)cc1 (centres undefined),0.3
O=C(C[C@H]1CC[C@H]2[C@@H](COC[C@@H](O)CN2C(=O)c2ccncc2)O1)NC1CCC1,-4.0
O=C(Nc1ccccc1)N1C[C@@H]2N[C@H](C1)[C@@H]2c1ccc(/C=C/c2ccccc2)cc1,28.8*
C[C@@H]1CN([C@@H](C)CO)C(=O)c2cc(C#CC3CC3)cnc2O[C@@H]1CN(C)S(=O)(=O)c1cccc(F)c1,-0.2
CN1c2ccc(-c3cccc(F)c3)cc2[C@H]2[C@H](CCN2C(=O)CC2CC2)[C@@H]1CO,-0.6
C[C@@H]1CN([C@@H](C)CO)C(=O)c2cc(-c3ccccc3)cnc2O[C@H]1CN(C)C(=O)Nc1ccccc1F,-14.3
CCc1nc2ccc(C(=O)NCCOc3ccc(OC)cc3)cn2c1N(C)CCCc1ccccc1,0.1
CC(C)c1ccc(NC(=O)Nc2nc(CN)cs2)cc1,8.5
C[C@@H]1CN([C@H](C)CO)C(=O)c2cc(NC(=O)CCC(F)(F)F)ccc2O[C@H]1CN(C)C(=O)NC1CCCCC1,-4.2
N#C[C@@H]1[C@@H](c2ccc(-c3ccccc3)cc2)[C@H](CO)N1C(=O)Cc1ccccc1,1.7
COc1ccc(S(=O)(=O)N(C)C[C@@H]2OCCCC[C@H](C)Oc3ccc(NC(=O)NC(C)C)cc3C(=O)N([C@H](C)CO)C[C@@H]2C)cc1,2.4
COc1ccc2c3c([nH]c2c1)[C@H](CO)N(C(=O)c1ccc(F)cc1)CC31CN(Cc2cccnc2)C1,3.0

Two of these compounds, set out differently.
MLL AF4-AF9 inh	SMILES
-0.2	C[C@@H]1CN([C@@H](C)CO)C(=O)c2cc(C#CC3CC3)cnc2O[C@@H]1CN(C)S(=O)(=O)c1cccc(F)c1
-0.6	CN1c2ccc(-c3cccc(F)c3)cc2[C@H]2[C@H](CCN2C(=O)CC2CC2)[C@@H]1CO

More records:
canonical_smiles,MLL AF4-AF9 inh
Cc1ccc(S(=O)(=O)N(C)C[C@@H]2Oc3ccc(NC(=O)Nc4ccc5c(c4)OCO5)cc3C(=O)N([C@@H](C)CO)C[C@H]2C)cc1,7.4
CO[C@@H]1CN(C)C(=O)c2ccc(NS(=O)(=O)c3cn(C)cn3)cc2OC[C@H](C)N(CC2CC2)C[C@H]1C,-2.3
C[C@@H]1CN([C@@H](C)CO)C(=O)c2cc(NC(=O)C3CC3)ccc2O[C@H]1CN(C)Cc1ccncc1,1.1
CC(C)C[C@H]1COc2cccc(N3CCCCC3)c2S(=O)(=O)N1,-1.6
C[C@@H]1CN([C@H](C)CO)C(=O)c2ccccc2-c2ccccc2CO[C@@H]1CN(C)S(=O)(=O)c1ccc(C#N)cc1,-3.0
C(=C\c1ccc(C2[C@@H]3CN(Cc4cccnc4)C[C@H]2N3)cc1)/c1ccccc1 (some centres undefined),32.7*
C=CCNc1ncnc2c1ncn2[C@H]1CN(CCOC)C[C@@H](CO)O1,-0.4
COc1ccc(CN2CC3(CN(C(=O)Cc4ccncc4)C3)c3c([nH]c4cc(OC)ccc34)[C@H]2CO)cc1,1.2
CCCNC(=O)C[C@H]1CC[C@@H]2[C@H](COC[C@@H](O)CN2C(=O)Nc2ccc(Cl)c(Cl)c2)O1,0.3
O=C(NC(c1ccccc1)c1ccc2ccccc2n1)C1CCN(Cc2ccc(Cl)c(Cl)c2)CC1 (centres undefined),1.1
C[C@@H]1CN([C@@H](C)CO)C(=O)c2cccc(NC(=O)c3ccc(-c4nccs4)cc3)c2O[C@@H]1CN(C)S(=O)(=O)c1ccc(Cl)cc1,0.4
COc1ccc(CN(C)C[C@@H]2Oc3ccc(NC(=O)Cn4cnnn4)cc3C(=O)N([C@H](C)CO)C[C@@H]2C)cc1,1.1
Cc1ccc(S(=O)(=O)N(C)C[C@H]2Oc3ccc(NC(=O)C4CCCCC4)cc3C(=O)N([C@@H](C)CO)C[C@@H]2C)cc1,-13.8
Cc1ccc(S(=O)(=O)N(C)C[C@@H]2Oc3ccc(NC(=O)Nc4ccc5c(c4)OCO5)cc3CC(=O)N([C@H](C)CO)C[C@H]2C)cc1,1.4
COc1ccccc1NC(=O)N(C)C[C@@H]1OCc2ccccc2-c2c(n(C)c3ccccc23)C(=O)N([C@H](C)CO)C[C@H]1C,2.1
O=C(c1cccc(F)c1)N1C[C@@H]2[C@H](c3ccccc31)[C@@H](CO)N2C(=O)C1CCCC1,2.1
COc1ccc(CN2C[C@@H](CO)O[C@@H](n3cnc4c(NCCN(C)C)ncnc43)C2)cc1,-0.5
COc1ccc(CN(C)C[C@H]2Oc3ccc(NC(=O)Nc4ccc(F)cc4)cc3CC(=O)N([C@@H](C)CO)C[C@H]2C)cc1,-1.4
O=C(C[C@@H]1C[C@H]2c3cc(NC(=O)NC4CCCC4)ccc3O[C@H]2[C@@H](CO)O1)NCc1cccc(F)c1,-1.6
COc1ccc(C(C)=O)cc1Cn1c(C)c(C(=O)NCc2cccc(Cl)c2)sc1=O,0.5

6 compounds drawn at random from those above, as already listed:
canonical_smiles,MLL AF4-AF9 inh
C[C@@H]1CN([C@@H](C)CO)C(=O)c2cc(NC(=O)C3CC3)ccc2O[C@H]1CN(C)Cc1ccncc1,1.1
COc1ccc(CN2CC3(CN(C(=O)Cc4ccncc4)C3)c3c([nH]c4cc(OC)ccc34)[C@H]2CO)cc1,1.2
Cc1ccc(S(=O)(=O)N(C)C[C@@H]2Oc3ccc(NC(=O)Nc4ccc5c(c4)OCO5)cc3C(=O)N([C@@H](C)CO)C[C@H]2C)cc1,7.4
O=C(C[C@@H]1C[C@H]2c3cc(NC(=O)NC4CCCC4)ccc3O[C@H]2[C@@H](CO)O1)NCc1cccc(F)c1,-1.6
CO[C@@H]1CN(C)C(=O)c2ccc(NS(=O)(=O)c3cn(C)cn3)cc2OC[C@H](C)N(CC2CC2)C[C@H]1C,-2.3
C(=C\c1ccc(C2[C@@H]3CN(Cc4cccnc4)C[C@H]2N3)cc1)/c1ccccc1 (some centres undefined),32.7*

Later entries
canonical_smiles,MLL AF4-AF9 inh
COC(=O)C[C@@H]1C[C@@H]2c3cc(NC(=O)Nc4ccccc4F)ccc3O[C@@H]2[C@H](CO)O1,2.8
COc1ccc(CN(C)C[C@H]2OCCCC[C@H](C)Oc3ccc(NS(C)(=O)=O)cc3C(=O)N([C@@H](C)CO)C[C@@H]2C)cc1,-1.5
COc1ccc2c3c(n(C)c2c1)[C@H](CO)N(C(=O)c1cnccn1)CC31CN(C(=O)c2ccncc2)C1,-1.6
Cc1nc2ccc(C(=O)NC(C)(C)C)cn2c1N(C)C(=O)CCc1ccccc1,2.8
O=C(C(=O)N1CCC(CNS(=O)(=O)Cc2ccccc2)CC1)c1cccs1,-0.2
O=C(C[C@H]1CC[C@H](NC(=O)C2CCC2)[C@H](CO)O1)NCC1CC1,-1.9
CS(=O)(=O)N1[C@@H]2c3ccc(-c4ccc(F)cc4)c(=O)n3C[C@@H]2[C@@H](CO)[C@@H]1C(=O)O,-0.7
CCCNC(=O)Nc1ccc2c(c1)OC[C@H](C)N(Cc1cccnc1)C[C@@H](C)[C@H](OC)CN(C)C2=O,-0.9
COc1ccc(NC(=O)Nc2cccc3c2O[C@@H](CN(C)C(=O)Nc2ccc(OC)cc2)[C@H](C)CN([C@H](C)CO)C3=O)cc1,-1.9
O=C(C[C@@H]1C[C@H]2c3cc(NC(=O)Cc4ccncc4)ccc3O[C@H]2[C@@H](CO)O1)NCCN1CCCCC1,6.6
O=C(N[C@H]1CC[C@@H](CCNS(=O)(=O)Cc2ccccc2)O[C@@H]1CO)c1ccc2c(c1)OCO2,5.4
C[C@H](CO)N1C[C@H](C)[C@H](CN(C)S(=O)(=O)c2ccc(Cl)cc2)OCCCC[C@H](C)Oc2ccc(NC(=O)c3ccncc3)cc2C1=O,5.6
O=C1NCCc2onc(-c3ccc(Br)cc3)c21,-0.5
O=C(Nc1ccccc1F)N[C@H]1CC[C@H](CCNC(=O)C2CCCC2)O[C@H]1CO,-1.8
COCC(=O)N(C)C[C@H]1Oc2ncc(C#CC3(O)CCCC3)cc2C(=O)N([C@@H](C)CO)C[C@@H]1C,-0.7
CCOC(=O)[C@H]1[C@H]2COc3ccc(C)cc3[C@@H]2N2C(=O)CN(C)C(=O)[C@@]12C,-0.9
CO[C@@H]1CN(C)C(=O)c2cc(NS(C)(=O)=O)ccc2OC[C@H](C)N(Cc2ccccc2)C[C@@H]1C,-1.8
C[C@H]1CN([C@@H](C)CO)C(=O)CCCn2nncc2CO[C@H]1CN(C)S(=O)(=O)c1ccc(Oc2ccccc2)nc1,0.4&0.3
Cc1ccc(S(=O)(=O)N(C)C[C@H]2Oc3c(NC(=O)c4ccc(-c5nccs5)cc4)cccc3C(=O)N([C@H](C)CO)C[C@@H]2C)cc1,0.6
COc1cc(CN2CCC(C(=O)NC(c3ccc(F)cc3)c3ccc4ccccc4n3)CC2)cc(OC)c1 (centres undefined),1.5
C[C@H]1CN([C@@H](C)CO)C(=O)c2cccc(NC(=O)CCCCCC(=O)Nc3ccccc3N)c2O[C@@H]1CN(C)S(=O)(=O)c1ccc(F)cc1,4.8
CO[C@@H]1CN(C)C(=O)c2ccc(NC(=O)c3cc(C)on3)cc2OC[C@@H](C)N(C(C)=O)C[C@@H]1C,-1.8
C[C@H]1CN([C@@H](C)CO)C(=O)c2cccc(NC(=O)Nc3ccc(F)cc3)c2O[C@@H]1CN(C)C,-1.3
C[C@@H]1CN([C@@H](C)CO)C(=O)Cc2cc(NC(=O)Cc3ccccc3)ccc2O[C@@H]1CN(C)S(=O)(=O)c1ccc(F)cc1,-0.3
C[C@H]1CN([C@@H](C)CO)C(=O)c2cccc(NC(=O)c3nc4ccccc4s3)c2O[C@H]1CN(C)Cc1ccc(C(F)(F)F)cc1,0.4
CC(C)NC(=O)Nc1ccc2c(c1)C(=O)N([C@@H](C)CO)C[C@@H](C)[C@@H](CN(C)S(=O)(=O)c1cn(C)cn1)OCCCC[C@H](C)O2,1.0
CCOC(=O)[C@H]1[C@H]2COc3ccc(OC)cc3[C@H]2N2C(=O)CN(Cc3ccccc3)C(=O)[C@@]12C,-2.5
N#C[C@H]1[C@H](c2ccc(-c3ccccc3F)cc2)[C@H](CO)N1C(=O)C1CC1,-0.3
C[C@@H]1CN([C@@H](C)CO)C(=O)c2cc(-c3ccc(F)cc3)cnc2O[C@H]1CN(C)S(C)(=O)=O,0.2
O=[N+]([O-])c1ccc2c(c1)CO[C@]21O[C@H](CCO)C[C@H](O)[C@H]1O,-0.8
COc1ccccc1Cc1c(-c2ccc(OC)c(OC)c2)nc2ccc(Br)cn12,13.1
C[C@@H]1CN([C@@H](C)CO)C(=O)c2cccc(NC(=O)NC3CCCCC3)c2O[C@@H]1CN(C)S(=O)(=O)c1cn(C)cn1,-3.5
CC(=O)Nc1cccc(-c2ccnc3c2CC(C)(C(=O)NCC2CC2)O3)c1 (centres undefined),-0.9
COCCNC(=O)C[C@@H]1C[C@@H]2c3cc(NC(=O)c4ccc5c(c4)OCO5)ccc3O[C@@H]2[C@H](CO)O1,-0.7
O=C(NCc1ccc(Cl)nc1)c1csc(COCCO)n1,-2.0
COc1ccc(-c2ccc([C@H]3[C@@H](C#N)N(C(=O)c4cccnc4)[C@@H]3CO)cc2)cc1,-0.7
CCN(C[C@H]1N[C@H](CO)[C@H]1c1ccc(-c2ccccc2)cc1)C(=O)COC,2.5
COc1cc(NC(=O)[C@H]2O[C@@H](n3cnc4c(N)ncnc43)[C@H](O)[C@@H]2O)cc(OC)c1OC,0.8
C[C@H]1CN([C@@H](C)CO)C(=O)c2cc(NS(=O)(=O)c3cccs3)ccc2O[C@H]1CN(C)C(=O)Nc1ccc(F)cc1,-2.3
OCCN1CCN(c2ncnc3c2ncn3[C@H]2CN(Cc3ccc(Cl)cc3)C[C@@H](CO)O2)CC1,0.6
COc1ccc2c3c([nH]c2c1)[C@H](CO)N(C(=O)NC(C)C)CC31CCN(C(=O)c2cccnc2)CC1,-2.7
COCC#Cc1cnc2c(c1)C(=O)N([C@@H](C)CO)C[C@H](C)[C@@H](CN(C)C(=O)Nc1ccccc1F)O2,-1.9
COc1ccc(NC(=O)N2CC(=O)N3[C@H](CO)[C@@H](c4ccc(C#CCC5CCCC5)cc4)[C@H]3C2)cc1,5.6
CCN(CC)S(=O)(=O)c1ccc(C(=O)NC(=S)N2CCCCC2C)cc1 (centres undefined),0.2
COCC(=O)Nc1ccc2c(c1)OC[C@@H](C)N(CCC(F)(F)F)C[C@@H](C)[C@H](OC)CN(C)C2=O,-2.0
O=C(C[C@H]1C=C[C@@H](NC(=O)Cc2cccnc2)[C@H](CO)O1)NCc1ccc2c(c1)OCO2,0.2

Not all compounds are listed; count on the stated rates, not on these rows.
